Source: PubChem BioAssay
NPYLR7 agonist – agonists of mosquito NPYLR7 receptor, primary screen, cell-based, Aedes aegypti, calcium fluorescence, mosquito biting behavior; Aedes aegypti neuropeptide Y-like receptor 7 (NPYLR7); HEK293T NPYLR7/Galpha15, GCaMP6s calcium fluorescence; 270,000 compounds, 0.15% hits; activation, % at 10 µM; in the data active = activation above about 40%;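 also: 0% = vehicle and 100% = reference agonist at the receptor; some compounds past the cut are filed as inactive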
NPYLR7 agonist max-min – also measured in NPYLR7 agonist; calls as there; activation, %; measured here: Max-Min RFU normalised activation; some inactives read as strong as hits;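 span of the calcium signal over five minutes; 0% = vehicle and 100% = native peptide agonist; compound fluorescence can raise it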
The depositor's hits bear a star; & = joins results of further samples. These rows are one share of the data; count on the stated rates, not on these rows.

SMILES,NPYLR7 agonist,NPYLR7 agonist max-min
COc1ccc(C(C)NC(=O)c2cnccn2)cc1Br (configuration not stated),13,4
CN(C)CCC1CN(C(=O)c2ccc(C(F)(F)F)cc2)CCO1 (configuration not stated),7,6
NC(=O)c1ccccc1OCc1csc(COc2ccc(F)cc2)n1,8,2
O=c1oc2ccccc2n1CN1CCCCC1,1,0
Cc1nc(C)c(Cc2cccc(C(F)(F)F)c2)c(N2CCN(C(=O)COc3ccccc3)CC2)n1,0,1
CCOC(=O)C(C)n1cnc2c(nnn2-c2ccc(F)cc2)c1=O (configuration not stated),7,9
COc1ccc(/C=C2/C(=O)N(c3ccccc3)N=C2C)cc1,-1,-6
CN(CCc1noc(C2CC2)n1)c1nc(-c2ccncc2)nc2c1CNC2,0,1
COc1cccc2c1OCCCN(C(=O)CCc1scnc1C)C2,6,3
O=C(O)c1ccc(CSc2nnc(-c3ccccc3Cl)n2Cc2ccccc2)cc1,0,-2
NC(=O)CC[C@H](N)C(=O)O,2&-6&-4,1&-11&-7
Cc1ccc(OCCCC(=O)Nc2sccc2C(N)=O)cc1,3,2
O=C(O)c1cccc(CC2CCN(S(=O)(=O)N3CCOCC3)C2)c1 (configuration not stated),1,3
CC(NC(=O)c1cnn2cc(CCO)cnc12)c1ccc(O)c(F)c1 (configuration not stated),-5,-5
O=C(Cn1c(=O)sc2ccccc21)N1CCCC1,-3,-3
O=C(O)Cc1n[nH]c(CNc2ccccc2)n1,-11,-18
CN(Cc1nnc(-c2ccccc2)o1)C(=O)C1CCCN(Cc2ccco2)C1 (configuration not stated),6,-6
CCc1nc(C)c(C(=O)NCc2cccnc2-n2ccnc2)o1,2,0
Fc1cccc(-c2nnc(CN3CCCCC3CCN3CCOCC3)o2)c1 (configuration not stated),1,1
CCn1nnnc1SCc1csc(-c2ccc(Cl)cc2)n1,3,-1
CCOCCCn1c(NC(=O)Nc2ccc(C)cc2)c2ccccc2nc1=O,8,5
O=[N+]([O-])c1cc(O)c(N=Cc2c(O)ccc3ccccc23)cc1Cl,10,9
Clc1cncc(NCc2cccc(COC3CCOCC3)c2)n1,-2,-8
COc1ccc(CC(=O)Nc2c(-c3cccc(OC)c3)nc3ccccn23)cc1,-2,6
O=C(NNS(=O)(=O)c1ccc2ccccc2c1)c1ccccc1Cl,12,3

A stretch taken from the entries so far, as a working copy:
SMILES,NPYLR7 agonist,NPYLR7 agonist max-min
COc1ccc(C(C)NC(=O)c2cnccn2)cc1Br (configuration not stated),13,4
CN(C)CCC1CN(C(=O)c2ccc(C(F)(F)F)cc2)CCO1 (configuration not stated),7,6
NC(=O)c1ccccc1OCc1csc(COc2ccc(F)cc2)n1,8,2
O=c1oc2ccccc2n1CN1CCCCC1,1,0
Cc1nc(C)c(Cc2cccc(C(F)(F)F)c2)c(N2CCN(C(=O)COc3ccccc3)CC2)n1,0,1
CCOC(=O)C(C)n1cnc2c(nnn2-c2ccc(F)cc2)c1=O (configuration not stated),7,9
COc1ccc(/C=C2/C(=O)N(c3ccccc3)N=C2C)cc1,-1,-6
CN(CCc1noc(C2CC2)n1)c1nc(-c2ccncc2)nc2c1CNC2,0,1
COc1cccc2c1OCCCN(C(=O)CCc1scnc1C)C2,6,3
O=C(O)c1ccc(CSc2nnc(-c3ccccc3Cl)n2Cc2ccccc2)cc1,0,-2
NC(=O)CC[C@H](N)C(=O)O,2&-6&-4,1&-11&-7
Cc1ccc(OCCCC(=O)Nc2sccc2C(N)=O)cc1,3,2
O=C(O)c1cccc(CC2CCN(S(=O)(=O)N3CCOCC3)C2)c1 (configuration not stated),1,3
CC(NC(=O)c1cnn2cc(CCO)cnc12)c1ccc(O)c(F)c1 (configuration not stated),-5,-5
O=C(Cn1c(=O)sc2ccccc21)N1CCCC1,-3,-3
O=C(O)Cc1n[nH]c(CNc2ccccc2)n1,-11,-18

(cont.)
SMILES,NPYLR7 agonist,NPYLR7 agonist max-min
COc1ccc2n[nH]c(CN3CCCN(c4ccnc(C)c4)CC3)c2c1,5,2
Nc1ccc2nc(-c3ccc4nc[nH]c4c3)[nH]c2c1,11,3
COc1cc(CN2CCn3nc(C(=O)Nc4ccc(C(C)C)cc4)cc3C2=O)cc(OC)c1,12,5
CCCc1nn2c(N)c(C=C3C=CC(=O)C=C3)c(=O)nc2s1,-4,-4
Cc1noc(-c2ccccc2Cl)c1C(=O)NCCc1cnc[nH]1,-9,-5
Nc1c(C(=O)Nc2ccc(Br)cc2)sc2[nH]c(=O)c(C(=O)O)cc12,19,20
CCOc1ccccc1NC(=O)N1CCN2C(=O)CN(C)C(=O)C2C1 (configuration not stated),2,-1
Cc1ccc(C)c(Cc2c(C)nc(C)nc2N2CCN(C(=O)c3cccc(C(F)(F)F)c3)CC2)c1,2,6
CN(C)Cc1nc(C(=O)N2CC[C@@]3(O)CCCC[C@H]3C2)cs1,-5,-9
N=C(N)c1cccc(NC(=O)Nc2cccc(C(=N)N)c2)c1,-29,-38
COc1ccc(OC)c(N2CCN(C(=O)c3ccc(C(F)(F)F)cc3)C(C)C2=O)c1 (configuration not stated),-2,3
COc1ccccc1CCN1CC(=O)N(c2ccc(Cl)cc2)C2CS(=O)(=O)CC21 (configuration not stated),4,4
CCCC12CCC(O)(CC1)CC2,8,9
O=S(=O)(NCc1ccnc(OC2CCCC2)c1)N1CCCCCC1,0,2
CC(C)(C)CC(C)(C)NC(=O)/C=C/S(=O)(=O)c1ccccc1O,7,6
CC(C)(CN1CCC(Cc2cccc(C(=O)O)c2)C1)N1CCOCC1 (configuration not stated),3,-3
O=C(Nc1ccc(Cl)cn1)c1cc2nc(-c3ccc(Br)cc3)cc(C(F)(F)F)n2n1,5,2
COCCN(Cc1c(-c2ccccc2)noc1N1CCN(C)CC1)C(=O)c1ccc(Cl)cc1,13,13
CC(NC1CCSCC1)c1ccc(-n2cncn2)cc1 (configuration not stated),-2,-2
COc1cccc(NC(=O)N2CCN(CC(OCc3cccc(C)c3)c3ccc(Cl)cc3)CC2)c1 (configuration not stated),-8,-7
COc1ccccc1OCCNC(=O)Cn1c(-c2cccs2)n[nH]c1=S,9,3
CC(C)OCCCNC(=O)c1c(O)nc2ccccn2c1=O,-2,20
Cc1cccc(CO[C@]2(C(=O)NCCN3CCOCC3)CC(OCc3ccc(C(F)(F)F)cc3)[C@@H]3OC(C)(C)O[C@@H]3C2)c1 (some centres not stated),26,15
Cc1cc2cc(C(=O)NCCSc3nnc(C)s3)ccc2o1,7,5
O=C1CC(C(=O)N2CCCn3nccc32)CN1c1ccc2c(c1)OCO2 (configuration not stated),2,11
COc1cccc(Cc2nsc(N3CCCN(C(=O)Nc4c(Cl)cccc4Cl)CC3)n2)c1,16,18
O=C(c1ccccc1Cl)N1CCN(c2cc(Oc3ccc(Cl)cc3)ncn2)CC1,10,12
COc1ccccc1N1CCN(C(=O)c2cc(-c3ccccc3F)nn2-c2ccc([N+](=O)[O-])cc2)CC1,-1,-1
CNC(=O)[C@H]1CN(S(=O)(=O)c2cccs2)[C@]2(C)C(=O)N(CCOC)c3ccccc3[C@H]12,16,15
O=C(CCC(=O)N1CCN(c2ccccn2)CC1)c1ccc2ccccc2c1,1,6
C#CCN(C)C(=O)c1cc2c(s1)-c1cc(OC)ccc1CC2,-5,5
CCNc1ncnc2c1oc1ccccc12,4,11
Cc1cn(C(=O)CN2C(=O)c3ccccc3C2=O)c(C)n1,0,-6
Cc1ccc(CN(C)CC(=O)Nc2sccc2C#N)cc1,20,10
Cc1cc(Sc2ncnc(N)c2[N+](=O)[O-])nc(C)n1,2,2
CCCn1cc(C2CCN(S(=O)(=O)c3ccccc3Cl)CC2)c2ccccc21,3,0
CCC(c1cccnc1)N(C)C(=O)c1cnn(Cc2ccccc2)c1 (configuration not stated),0,-5
O=C(CN1C(=O)C2C3C=CC(C3)C2C1=O)NCc1ccco1 (configuration not stated),3,1
COc1ccc(C)cc1Nc1nc2c(S(=O)(=O)c3ccccc3)nnn2c2ccsc12,11,13
OC(CN1CCCC1c1nc2ccccc2s1)c1ccccc1 (configuration not stated),1,3
C=C1C(=O)O[C@@H]2/C=C(\C)CC/C=C(\C)CC[C@@H]12,-10,-9
O=C(Nc1cccc(Cl)c1)N1CCCC(OCc2ccc(C(F)(F)F)cc2)C1 (configuration not stated),-2,3
COc1ccccc1-c1ncc(C2NCCc3[nH]cnc32)cn1 (configuration not stated),17,12
Cn1c(SCC(=O)Nc2cc(=O)n(C)c(=O)n2C)nnc1C12CC3CC(CC(C3)C1)C2,0,-1
CCN(Cc1ccccc1)C(=O)CCN1CCCN(C)CC1,4,1
CC1CCCCN1CC(=O)N1CCN(S(=O)(=O)c2ccc(F)c(Cl)c2)CC1 (configuration not stated),1,7
CCc1ccccc1Nc1nnc(Cc2ccccc2)c(=O)[nH]1,-1,-2
CCOC(=O)c1c(N)c(C(=O)c2ccc(C(C)(C)C)cc2)n2ccccc12,-4,-9
CCOCCCNC(=O)c1cc(NC(=O)Nc2ccccc2OCC)ccc1N1CCN(c2ccccc2OC)CC1,16,15
COC(=O)c1cccnc1NCCc1ccccc1F,1,-1

Additional records
SMILES,NPYLR7 agonist,NPYLR7 agonist max-min
CCOC(=O)c1cnc(-c2cccc(C(F)(F)F)c2)nc1NCCc1ccccn1,5,1
Cc1cc(C)c(C#N)c(Oc2ccc(-c3nnco3)cc2)n1,20,19
O=C1C=CC(=NOC(=O)c2ccccc2)C2=C1C1C=CC2C1 (configuration not stated),2,1
O=C(CCl)Nc1ncc(Cc2ccc(Br)cc2)s1,18,9
CC1(C(=O)NS(=O)(=O)c2ccccc2C(F)(F)F)CCN1C(=O)C1CCCCC1 (configuration not stated),4,0
CC(C)N(Cc1cnn(C)c1)S(=O)(=O)c1cccc(C(F)(F)F)c1,0,0
COc1cc(-c2cc(C(F)(F)F)n3ncc(C(=O)N4CCOCC4)c3n2)cc(OC)c1OC,-2,-13
CCn1ccc(C(=O)N=c2sc3cc(S(C)(=O)=O)ccc3n2CCSC)n1,-4,-4
Cc1cccc2oc(-c3ccc(NC(=O)c4ccc(F)cc4)cc3Cl)nc12,4,8
CC1CN(C(=O)c2ccc(S(=O)(=O)N3CCCCC3)cc2)CCO1 (configuration not stated),-8,-11
COc1cccc(/C=C2/N=C(c3ccc(NC(C)=O)cc3)OC2=O)c1,-10,-22
Cc1cc(C)c2c(CC(=O)N3CCOC(C(F)(F)F)C3)coc2c1C (configuration not stated),10,9
COC[C@H](C)Nc1nc(CCN)nc2sc(C)c(C)c12,1,3
COc1cccc(C(=O)N2CCN(c3nc(Cc4ccccc4)nc4sc5c(c34)CCCCC5)CC2)c1,0,6
CC(NC(=O)NCC(=O)NC1CC1)c1csc2ccccc12 (configuration not stated),8,10
CCN(CC)S(=O)(=O)c1c(C)nn(S(=O)(=O)c2ccc(C(C)(C)C)cc2)c1C,5,5
CN(CCN1CCCCC1=O)c1nc(-c2ccccc2)nc2c1CCNC2,20,13
CCOC(=O)c1cc(-c2cccc(NC(=O)c3cccs3)c2)n(-c2ccccn2)n1,15,5
NC(=O)[C@H](CC1CCCCC1)NC(=O)[C@H]1CNCCN1C(=O)N1CCOCC1,-7,-11
C=C(C)Cn1c(=O)c2c(nc3n2CCN3c2ccc(OC)cc2)n(C)c1=O,2,-1
Cc1ccc2c(c1)N(Cc1ccccc1)C(=O)C(C)S2 (configuration not stated),1,0
COc1ccccc1/C=C(\NC(=O)c1ccc(C)cc1)C(=O)Nc1ccccc1OC,0,-4
Cc1cc2cc(C(=O)NC(Cn3ccnc3)C(C)C)ccc2o1 (configuration not stated),3,2
CCc1c(C)sc(NC(=O)c2noc(C(C)C)c2[N+](=O)[O-])c1C#N,7,5
COc1ccc(S(=O)(=O)Oc2cc(CN(CC3CCCO3)C(=O)c3ccccc3Cl)ccc2OC)cc1 (configuration not stated),25,12
CCc1cc(=O)n2nc(NC3CCN(CCOc4ccc(F)cc4)CC3)sc2n1,-2,-2
CCc1cc2c(cc3c(=O)n(CC(=O)NC(C)CC)nc(CC)n32)s1 (configuration not stated),12,12
Cc1nn(C)c(C)c1NC(=O)c1cc(C)n(C(C)C)c1C,8&2,2&3
CCOC(=O)CC(=O)Nc1sc2c(c1C(=O)OCC)Cc1ccccc1-2,4,0
COCCCn1cnc(-c2ccccc2)c1-c1cc2c(cc1OC)OCCCO2,-6,-5
C=CCCC(=O)N1c2cccc3c2[C@@H](C[C@H]1C(N)=O)CN(C)C3=O,5,15
O=C(c1cc(F)ccc1Cl)N1CCC(Cc2ccc(C(F)(F)F)cc2)CC1,19,11
OCC1(Cc2ccccc2F)CCCN(c2ccc3ccccc3n2)C1 (configuration not stated),29,19
Cc1cc(NC(=O)CSc2nnc3n2CCCCC3)no1,8,15
Cc1nc(C(C)NC(=O)c2ncccc2OCC(F)(F)F)cs1 (configuration not stated),3,2
CC(C)n1c(=O)c(C(=O)NCCCCc2ccccc2)cc2cccnc21,0,-2
O=C1NC2(CCCCC2)C(=O)N1CN1CCCC1c1cccs1 (configuration not stated),7,12
CS(=O)(=O)CC(=O)N1CCN(C2Cc3ccccc3C2)CC1,-2,-8
